E-sel inducer = induces E-selectin expression in human endothelial cells. hit rate 0.37% among 260,000. HUVEC E-selectin immunofluorescence imaging; normalized: neutral wells 0, TNF-alpha wells 100. activation, % at 7.58 µM. P16581;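 active means mean E-selectin-positive cell signal at least 10% of the positive control, reached in at least 60% of replicates, without over 20% cell loss; inconclusive means no rule given, readout overlaps actives, possibly toxicity-flagged; inactive means the rest, including those meeting only one limit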;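 further: in these data hits start at about 27%; measured in HUVEC primary endothelial cells; signal is the percent of cells scored E-selectin positive by PE staining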
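Read-out: % PE-positive cells | Test system: HUVEC | Doses: One compound dose added by pin transfer | Buffer or medium: EGM-2 over gelatin coat | Signal: Immunofluorescence imaging | Benchmarks: TNF-alpha, DMSO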
RAD52 inh = blocks human RAD52 DNA annealing. hit rate 0.46% among 360,000. AID 651710. inhibition, % at 18.7 µM. recombinant RAD52 DNA annealing, FRET fluorescence. P43351;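 active means every replicate showing at least 50% inhibition; inconclusive means mean inhibition at least 50% but not in every replicate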
Target sequence (P43351 whole entry, looked up): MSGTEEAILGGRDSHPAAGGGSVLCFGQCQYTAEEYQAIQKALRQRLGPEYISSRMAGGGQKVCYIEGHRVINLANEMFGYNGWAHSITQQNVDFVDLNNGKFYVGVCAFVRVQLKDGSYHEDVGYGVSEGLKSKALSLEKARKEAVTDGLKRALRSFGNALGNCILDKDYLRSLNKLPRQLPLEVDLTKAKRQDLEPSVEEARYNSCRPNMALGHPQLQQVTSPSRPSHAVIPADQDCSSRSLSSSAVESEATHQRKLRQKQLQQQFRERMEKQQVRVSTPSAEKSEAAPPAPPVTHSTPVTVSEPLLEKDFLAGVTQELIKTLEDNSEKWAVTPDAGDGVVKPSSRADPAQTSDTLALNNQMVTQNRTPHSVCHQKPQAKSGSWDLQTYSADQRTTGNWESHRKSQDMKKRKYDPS
RAD54 inh = RAD54 (human) branch migration inhibition; Q92698; AID 602329; RAD54 Holliday junction branch migration, FAM/BHQ fluorescence; inhibition, % at 10.4 µM; hit rate 0.14% among 360,000;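 active means mean normalized replicate activity at least 40 and at least half of replicates scoring 40 or more; inconclusive means only one of the two criteria met; inactive means mean below 40 and under half of replicates reaching 40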;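 further: 0% = median of neutral control wells and 100% = median of positive control wells; inhibitors cause a drop in the FAM fluorescence signal; in these data hits start at about 50%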
CASP6 VEID inh = blocks human caspase-6 cleavage activity. P55212. purified caspase-6, Z-VEID-R110 cleavage fluorescence. inhibition, % at 12.5 µM. hit rate 0.53% among 350,000;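 active means mean inhibition across replicates at least about 35%, with every replicate also reaching that limit, limit read from the data; inconclusive means only one of the two criteria met; inactive means neither criterion met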;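 further: 0% = median of neutral control wells and 100% = no fluorescence left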
Target sequence (P55212 24-179 limits assumed): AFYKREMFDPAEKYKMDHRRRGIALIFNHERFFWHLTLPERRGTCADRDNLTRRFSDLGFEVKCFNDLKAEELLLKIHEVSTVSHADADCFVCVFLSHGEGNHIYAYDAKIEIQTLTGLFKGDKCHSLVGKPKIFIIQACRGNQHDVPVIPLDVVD
Target sequence (P55212 194-293 limits assumed): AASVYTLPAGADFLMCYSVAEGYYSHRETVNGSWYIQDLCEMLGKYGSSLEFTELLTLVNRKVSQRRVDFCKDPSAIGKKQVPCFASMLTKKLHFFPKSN
PglD inh = inhibitors of Campylobacter jejuni PglD acetyltransferase; hit rate 0.098% among 360,000; purified PglD enzyme, DTNB colorimetric CoA detection; AID 602405; inhibition, % at 12.5 µM; in the data active means inhibition above about 16%, passing the limit was not always enough; inconclusive means no clear call, values can overlap the other calls; further: strong numbers were not always called active
esBAF inh = SWI/SNF esBAF complex inhibition | reporter increase, % at 12.5 µM | mouse ES cells, Bmi1-luciferase knock-in reporter, 24 h; 100% = twice the neutral-well signal | AID 602393 | hit rate 2% among 350,000; in the data active means activation above about 40%; inconclusive means no clear call, values can overlap the other calls;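 further: 0% = median of the plate's neutral control wells and 100% = double that signal; a rise in the Bmi1 reporter signal indicates esBAF inhibition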
ERp5 block = inhibitors of human ERp5; Q15084; ERp5 insulin aggregation, absorbance 650 nm, 90 min; inhibition, % at 9.99 µM; hit rate 0.05% among 350,000; AID 651711;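 active means mean replicate inhibition above about 25%, with every replicate also reaching it, limit read from the data, passing the limit was not always enough; inconclusive means only one of those two criteria met; inactive means neither criterion met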
An asterisk follows results filed as active; ? = inconclusive; / = no result given. These rows are one share of the data; rates above refer to the full screens.

SMILES	E-sel inducer	RAD52 inh	RAD54 inh	CASP6 VEID inh	PglD inh	esBAF inh	ERp5 block
O=C(N/N=C/c1ccc([N+](=O)[O-])o1)c1cc2ccccc2o1	/	-17	/	15	/	/	-5
CN(C)C(=O)C(CCN1CCC(O)(c2ccc(Cl)cc2)CC1)(c1ccccc1)c1ccccc1	-0.3	20	4	0	-1	7	0
CCNC(=O)Nc1ccc2c(c1)C(=O)N(C)[C@H]1CC[C@@H](CC(=O)N[C@H](C)c3ccccc3)O[C@H]1CO2	0.2	-4	2	3	1	-3	2
O=C(CSc1ccc2nnc(CCNC(=O)c3ccccc3)n2n1)Nc1ccccc1F	0.3	-2	/	0	/	/	3
C[C@@H]1CN([C@@H](C)CO)C(=O)Cc2cc(NC(=O)Nc3cccc4ccccc34)ccc2O[C@H]1CN(C)Cc1ccc(C(=O)O)cc1	-0.1	-4	10	3	-15	-2	-6
CCOC(=O)C1CCN(C(=O)c2ccc(NS(=O)(=O)c3ccc(F)cc3C)cc2)CC1	5.8	-6	4	2	/	-1	6
CC(=O)N(C)C[C@@H]1Oc2cc(-c3ccc(C#N)cc3)ccc2S(=O)(=O)N([C@@H](C)CO)C[C@H]1C	-0.3	5	4	0	2	-3	2
COCC(=O)N(C)C[C@@H]1Oc2cc(C#Cc3cccnc3)ccc2S(=O)(=O)N([C@H](C)CO)C[C@@H]1C	-0.1	-4	-1	0	1	5	1
C/C(=N/NC(=O)c1cc(Cl)ccc1O)C12CC3CC(CC(C3)C1)C2	/	/	-5	/	-3	7	/
COCC(=O)N(C)C[C@@H]1Oc2cc(C#Cc3cccnc3)ccc2S(=O)(=O)N([C@H](C)CO)C[C@H]1C	-0.2	5	2	0	9	-25	1
CN(Cc1ccccc1)C(=O)CCS(=O)(=O)c1cc2c(cc1Cl)NC(=O)CO2	/	-8	2	-2	4	1	-5
CC(C)(C)C1N=C(c2ccc3ccccc3c2)OC1=O (stereo unspecified)	0.3	-5	5	-2	-5	5	-1
CSCC[C@@H](C(=O)O)N1Cc2ccccc2C1=O	0.3	-1	-38	18	1	3	2
O=S(=O)(NCc1ccc2c(c1)OCO2)c1ccc(Cl)s1	1.7	-34	1	-2	-1	-1	7
COc1cc(C)c(S(=O)(=O)NCc2ccc3c(c2)OCO3)cc1C	-0.7	-21	6	1	-2	-12	-2
O=c1cc(-c2c(O)c3ccccc3n(Cc3ccccc3)c2=O)[nH][nH]1	/	-23	/	56*	/	-3	-3
O=C(NCC1CCCCN1)c1cc(OCC(F)(F)F)ccc1OCC(F)(F)F (stereo unspecified)	0.0	-6	4	4	5	3	2
COC(=O)CCN(C(=O)C12CC3CC(CC(C3)C1)C2)c1ccccn1	/	/	-10	/	4	-8	/
OCCc1ccc(O)c(-n2nc3ccccc3n2)c1	0.3	3	-5	1	0	32	1
COc1ccc(OC)c(-n2nnnc2SCC(=O)Nc2ccccc2OC)c1	0.9	-2	10	-2	-1	1	12
CNC[C@@H]1Oc2c(NS(=O)(=O)c3cccs3)cccc2C(=O)N([C@H](C)CO)C[C@@H]1C	0.7	-27	-7	2	9	3	-9
Cc1cc(NC(=O)CSc2nnc(-c3ccc4c(c3)OCCO4)o2)no1	/	/	-4	/	0	-28	/
O=C(NNC(=O)c1cc(F)c(F)cc1Cl)c1ccc(NS(=O)(=O)c2cccs2)cc1	-0.1	-12	0	0	-4	-4	1
Cc1cc(C)c(S(=O)(=O)Nc2cccnc2)c(C)c1	/	/	-1	/	-6	-2	/
CNC(=O)CSc1nnc(-c2ccco2)n1-c1ccc(C)cc1	/	/	2	/	6	/	/
SMILES	E-sel inducer	RAD52 inh	RAD54 inh	CASP6 VEID inh	PglD inh	esBAF inh	ERp5 block
COc1cccc(/C=C2/Sc3ccc(C(=O)NCCN4CCCCCC4)cc3NC2=O)c1	2.1	45	2	-50	2	-14	1
S=c1[nH]nc(-c2ccccc2Cl)n1Cc1ccccc1	0.1	-6	-11	0	-1	-8	-4
Cc1nn(-c2ccc(Cl)cc2)c2[nH]c(=O)c(CNCc3ccc4c(c3)OCO4)cc12	/	/	-6	/	-1	-2	/
C[C@@H]1CN([C@H](C)CO)C(=O)c2cc(NS(C)(=O)=O)ccc2O[C@H]1CN(C)S(=O)(=O)c1ccc(F)cc1	15	1	4	-2	-11	-1	-3
COc1ccc(N=CC2=C(O)CCCC2=O)cc1	/	-14	-2	1	-1	19	5
CCN(Cc1cc(=O)n2cc(Cl)c(C)c(Cl)c2n1)Cc1nc2ccccc2c(=O)[nH]1	-0.2	-36	/	5	/	/	3
CSc1nc(-c2ccco2)nn1C(=O)c1ccccc1Cl	0.0	-15	-12	3	8	/	2
C[C@@H]1CCCCO[C@H](CN(C)C(=O)Nc2ccc(F)cc2)[C@@H](C)CN([C@H](C)CO)C(=O)c2cc(NS(=O)(=O)c3ccc(Cl)cc3)ccc2O1	-0.3	14	-4	0	7	-2	2
CCCCOc1ccc2c(c1)/C(=C(\C(Cl)=C(Cl)Cl)[N+](=O)[O-])N2	/	-80	-8	5	-3	-8	7
CC1CCCC(NC(=O)CSc2nnc(C(F)(F)F)n2C)C1C (stereo unspecified)	/	-5	15	-2	1	-2	-7
N#Cc1ccc(/C=N/NC(=O)c2cc(-c3cccs3)nc3ccccc23)cc1	/	/	-4	/	-2	/	/
Cc1ccc(-c2nn3cnnc3c3ccccc23)cc1C	/	3	/	3	/	-45	3
COc1ccc(NC(=O)Nc2ccc3c(c2)C(=O)N([C@H](C)CO)C[C@H](C)[C@@H](CN(C)C(=O)CCC(F)(F)F)OCCCC[C@@H](C)O3)cc1	0.1	/	-6	/	1	10	/
COc1ccc(/C=N/NC(=O)c2c([N+](=O)[O-])c(C)nn2C)cc1	/	-2	/	-1	/	/	-1
CC1=C(C(=O)Nc2cccnc2)C(c2cccnc2)n2ncnc2N1 (stereo unspecified)	/	/	/	/	/	-14	/
CCOCCCNC(=S)NCCCNc1nc2cc3c(cc2cc1C#N)OCO3	/	-23	/	-1	/	/	-4
C[C@H]1CN([C@@H](C)CO)C(=O)c2cccc(NS(C)(=O)=O)c2O[C@H]1CN(C)C(=O)Nc1ccc2c(c1)OCO2	-4.0	2	0	-1	-27	0	5
O=S(=O)(Nc1nnc(-c2ccccc2)s1)c1ccc(Cl)cc1	/	/	1	/	8	7	/
CC1=C(C(N)=O)C(c2cccc(OCc3ccccc3)c2)n2nnnc2N1 (stereo unspecified)	/	/	-6	/	-5	/	/
CN(Cc1nc2ccc(F)cc2[nH]1)Cc1c(C(=O)N(C)C)nc2ccc(Cl)cn12	/	-14	/	0	/	/	4
c1ccc2c(NCC3CCCO3)nc(-c3ccncc3)nc2c1 (stereo unspecified)	/	/	9	/	3	-3	/
Cc1noc(C)c1S(=O)(=O)Nc1cccc(C(F)(F)F)c1	0.0	-8	9	-1	-3	1	-14
N#CCCN(CCC#N)C(=O)c1ccc2c(c1)OCO2	/	/	-3	/	0	-8	/
Cc1cnc(C(=O)NCCc2ccc(S(=O)(=O)NC(=O)NC3CCCCC3)cc2)cn1	0.3	-10	-1	6	0	-2	6
Cc1nnc(SCc2ccccn2)n(N)c1=O	/	-28	/	-1	/	/	2
SMILES	E-sel inducer	RAD52 inh	RAD54 inh	CASP6 VEID inh	PglD inh	esBAF inh	ERp5 block
C[C@H]1CN([C@@H](C)CO)C(=O)c2cc(C3=CCCCC3)cnc2O[C@@H]1CN(C)C(=O)Cc1cccnc1	-0.3	11	11	-2	1	-3	3
O=[N+]([O-])c1cc(C(F)(F)F)ccc1NCCOc1ccccc1	/	-21	/	-1	/	/	3
C[C@@H]1CN([C@@H](C)CO)C(=O)c2cc(NS(C)(=O)=O)ccc2O[C@@H](C)CCCCO[C@@H]1CN(C)S(=O)(=O)c1cccs1	0.1	15	-2	-1	-1	2	-14
COc1ccc(CNc2cc(NCCCO)c([N+](=O)[O-])c3nonc23)cc1	/	-15	/	3	/	/	0
COc1ccc2cc3cc(C(=O)NCCCN4CCc5ccccc5C4)sc3nc2c1	0.9	11	/	-1	/	/	2
O=C(C[C@H]1C[C@H]2c3cc(NC(=O)CC4CC4)ccc3O[C@H]2[C@@H](CO)O1)NCc1cccc(F)c1	-0.4	-2	-1	-3	4	0	-85
Cc1nn(-c2ccccc2)c(C)c1C(=O)NCc1ccccc1F	/	-9	-8	1	-4	-1	3
O=C(N/N=C1\CCCc2ccccc21)C(O)c1ccccc1 (stereo unspecified)	/	/	-5	/	4	2	/
CNC(=O)CSc1nnc(-c2ccc(S(=O)(=O)N3CCCC3)cc2)n1-c1cccc(C)c1C	/	/	-6	/	-2	8	/
CCc1ccccc1N/N=C(/C)c1c(O)cc(C)oc1=O	-0.6	0	-15	2	1	/	0
Cc1ccc([N+](=O)[O-])cc1-c1ccc2cccc(C)c2n1	/	/	-6	/	-1	-3	/
CC1CCN(S(=O)(=O)c2cn(CC(=O)Nc3ccc(OC(F)(F)F)cc3)cn2)CC1	0.2	-8	-5	0	0	-7	-1
CCN(CC)S(=O)(=O)c1ccc2c(c1)N(CC(=O)NCc1ccco1)C(=O)CO2	5.7	-14	2	1	-3	/	4
COc1ccccc1CCNC(=O)c1cc(COc2cccc(C(F)(F)F)c2)on1	/	-13	-10	0	3	-9	0
CC(=O)N(C)C[C@@H]1Oc2cc(-c3ccc(C#N)cc3)ccc2S(=O)(=O)N([C@H](C)CO)C[C@H]1C	0.0	12	2	3	2	0	2
CCN(CC)S(=O)(=O)c1ccc2c(c1)N(CC(=O)N(CCc1ccncc1)C(C)C)C(=O)CO2	/	-6	4	-1	-2	3	0
O=C(NC(c1ccccc1)c1ccccc1)c1cccc(S(=O)(=O)NCc2ccccc2)c1	-0.4	4	/	-2	/	/	-7
O=C(NCCCO)c1cc2c(cn1)[nH]c1ccccc12	-0.1	-18	4	2	1	26	-1
C[C@H]1CN([C@@H](C)CO)C(=O)c2cc(C#Cc3ccccn3)cnc2O[C@H]1CN(C)Cc1ccccc1	0.0	/	/	/	/	3	/
CCOc1ccc(NC(=O)CSc2nnc(Cn3cnc([N+](=O)[O-])n3)n2CC)cc1	/	-1	/	1	/	/	-3
O=C1c2ccncc2C(=O)N1Cc1cccc(Cl)c1	/	/	4	/	9	-4	/
C=CCNc1oc(-c2cccc(F)c2)nc1C#N	0.0	-25	-6	3	-1	-6	-7
CS/C(N)=N/C(=S)Nc1cccc(Cl)c1	/	-9	/	1	/	/	/
CCOC(=O)c1cnc(-n2nc(C)cc2C)nc1Nc1cccc(C(=O)O)c1	/	/	-6	/	-3	-1	/
C=CCNc1oc(-c2cccc(Cl)c2)nc1C#N	-0.1	-18	-3	0	-3	5	7

A few values from the list.
Result for CN(C)C(=O)C(CCN1CCC(O)(c2ccc(Cl)cc2)CC1)(c1ccccc1)c1ccccc1 under esBAF inh: 7
Result for Cc1noc(C)c1S(=O)(=O)Nc1cccc(C(F)(F)F)c1 under ERp5 block: -14

Other results follow:
SMILES	E-sel inducer	RAD52 inh	RAD54 inh	CASP6 VEID inh	PglD inh	esBAF inh	ERp5 block
CC(C)NC(=O)CC(=O)NN=C1CCCCC1	2.6	-5	/	1	/	/	-2
CN(C)CCN(C(=O)CN1C(=O)c2ccccc2C1=O)c1nc2cc3c(cc2s1)OCCO3	/	27	?	-7	-2	29	-2
O=C(Nc1ccc(Br)cc1)c1cccc(S(=O)(=O)Nc2ccccn2)c1	0.3	-13	-8	-2	5	14	-4
CCC(C)c1ccccc1OCCCNC1CCCC1 (stereo unspecified)	/	6	14	-23	-4	-4	5
CCCNCC(O)COc1ccccc1C(=O)CCc1ccccc1 (stereo unspecified)	1.1	0	7	4	-1	-2	3
O=C(N/N=C/c1ccco1)c1cccc(S(=O)(=O)Nc2ccccc2Cl)c1	6.6	/	/	/	/	/	/
CCOC(=O)c1cnc(-n2nc(C)cc2C)nc1NCc1ccc2c(c1)OCO2	/	/	-21	/	-8	1	/
COc1cc(/C=C2\CCCc3c2nc2ccccc2c3C(=O)O)cc([N+](=O)[O-])c1O	0.4	-9	-12	19	-1	-11	-1
CC(C)n1c(/C=C/[C@@H](O)C[C@@H](O)CC(=O)O)c(-c2ccc(F)cc2)c2ccccc21	-0.2	-3	0	6	-1	-27	1

Source: PubChem
